GLA inh pH 4.5: blocks human alpha-galactosidase A at pH 4.5. P06280. purified enzyme, 4-MU-alpha-Gal fluorescence, pH 4.5. activity change, negative = inhibition, % at 105 µM. 230,000 tested, under 10 active. AID 1467; inconclusive = small, poorly fitted or top-dose-only inhibition, or a rising curve; inactive = flat fitted curve, though single readings scatter; no compound was filed as active;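 note: 0% = full activity with enzyme and -100% = basal without enzyme; dose as in the result columns while the protocol names 77 µM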
miR-21 reporter: raises the signal of a miR-21 reporter; HeLa miR-21 FLuc reporter, luciferase, 48 h; Potency, µM (doses to about 38.3 µM), for inactives: top-dose reporter change, positive = more light; 340,000 tested, under 10 active; AID 2288; active = well fitted rising curve with a large enough effect; inconclusive = small, poorly fitted or top-dose-only effect; inactive = no such curve, though single readings can be large or run the other way;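 note: % of control where 0% means no effect; miR-21 action dims this reporter so a rising signal means less miR-21 action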
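Compounds were titrated across several concentrations (up to approximately 40 uM) and incubated 48 hours with HeLa miR-21-FLuc reporter cells (miR-21 target sequence downstream of FLuc, endogenous miR-21). Readout was firefly luciferase luminescence after lytic detection reagent.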
Rango-impB inh: prevents formation of the Rango-importin beta complex; 340,000 tested, 0.031% active; Rango CFP/YFP FRET sensor + importin beta, 45 min; Potency, µM (top dose mostly 92.2 µM), for the others: at the highest dose inhibition of complex formation; active = rising FRET ratio curve, often small or poorly fitted; inconclusive = mostly compound fluorescence or quenching in the first reads; inactive = flat curves in all reads;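 note: potency is the fitted concentration of half-maximal effect; 0% = DMSO wells and 100% = buffer wells lacking importin beta; nearly all actives have a fitted effect of over 15% in size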
Target sequence (Q14974 whole entry, looked up): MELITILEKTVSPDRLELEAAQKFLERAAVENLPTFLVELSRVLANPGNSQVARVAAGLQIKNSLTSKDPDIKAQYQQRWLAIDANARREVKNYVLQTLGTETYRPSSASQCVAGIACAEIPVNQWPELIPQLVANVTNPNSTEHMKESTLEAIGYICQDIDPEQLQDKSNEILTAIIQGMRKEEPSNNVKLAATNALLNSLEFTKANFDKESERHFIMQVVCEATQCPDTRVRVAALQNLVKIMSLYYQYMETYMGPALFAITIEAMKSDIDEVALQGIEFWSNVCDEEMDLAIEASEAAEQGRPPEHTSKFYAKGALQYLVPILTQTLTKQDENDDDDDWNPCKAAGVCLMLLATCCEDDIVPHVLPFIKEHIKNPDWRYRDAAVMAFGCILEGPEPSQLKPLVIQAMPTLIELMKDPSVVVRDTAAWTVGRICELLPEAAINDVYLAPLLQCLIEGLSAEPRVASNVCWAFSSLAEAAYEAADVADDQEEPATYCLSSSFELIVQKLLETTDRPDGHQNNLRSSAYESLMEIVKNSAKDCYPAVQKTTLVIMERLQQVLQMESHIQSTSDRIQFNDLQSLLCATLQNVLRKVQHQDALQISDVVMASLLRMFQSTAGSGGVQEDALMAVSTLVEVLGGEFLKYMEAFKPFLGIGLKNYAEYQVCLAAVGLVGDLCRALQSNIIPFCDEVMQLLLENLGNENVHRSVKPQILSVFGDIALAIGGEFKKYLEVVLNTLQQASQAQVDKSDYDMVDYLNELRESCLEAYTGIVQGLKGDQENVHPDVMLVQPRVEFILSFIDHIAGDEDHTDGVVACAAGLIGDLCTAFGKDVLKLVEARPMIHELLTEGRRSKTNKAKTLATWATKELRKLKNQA
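FRET biosensor (snurportin 1 IBB flanked by EYFP and cerulean), 50 nM, with compound 5 min, then 0.125 microM importin beta in PBS, 1 mM DTT, 0.02% Tween-20, 0.1% BSA. CFP/YFP ratio read after 45 min at room temperature; pre-read flags interference.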
Rango dissoc inh: prevents RanGTP from dissociating the Rango-importin beta complex | O95149+P62826 | Biochemical FRET Rango-importin beta, RanGTP-induced dissociation | Potency, µM (doses to about 46.1 µM), inactives show at the highest dose activity change, negative = inhibition | 340,000 tested, 0.071% active; active means falling FRET ratio curve, often poorly fitted, with flat reads before Ran was added; inconclusive means other falling curves, or compound fluorescence or quenching; inactive means flat or rising ratio curve;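 note: potency is the fitted concentration of half-maximal effect; % of control where 0% means no effect; nearly all actives have a fitted effect of over 45% in size; -100% = wells without RanGTP and RCC1; the record marks most hits as doubtful in a second field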
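Compounds sat 5 min at room temperature with 0.1 uM Rango biosensor plus 0.25 uM importin beta, then FRET pre-read. RanGTP-RCC1 (0.6 uM Ran, 2mM GTP, 0.2 uM RCC1) added for 45 min, and the CFP/YFP post-read measured blocked complex dissociation.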
* hit, by the source's call; ? = inconclusive; . = no result given; & = joins results of further samples.

Results follow in this order: GLA inh pH 4.5	miR-21 reporter	Rango-impB inh	Rango dissoc inh
CN1CC(=O)NC1=NC(=O)c1ccc(Cl)c(S(=O)(=O)N2CCCCCC2)c1
 : -1	-11%	-2.4%	-6%
CC(CC(=O)N1CCN(c2ccc(C(F)(F)F)cn2)CC1)n1ccnc1 (stereo unspecified)
 : 1	-1%	1.1%	1%
Cc1ccc(-n2nnc3c(=O)n(CC(=O)N4CCOCC4)cnc32)cc1
 : 4	-3%	-1.3%	?
Cc1coc2c1c(C)cc1oc(=O)c(CC(=O)NCCC(=O)O)c(C)c12
 : .	0%	0.2%	0%
Cc1ccc(S(=O)Cc2ccc(C(=O)N3CCN(C(=O)c4ccco4)CC3)o2)cc1 (stereo unspecified)
 : .	2%	0.1%	0%
CCOC(=O)C1=C(c2ccccc2)OC(N)=C(C#N)C1c1ccco1 (stereo unspecified)
 : -13	3%	4.5%	0%
Cn1c(=O)c2c(nc(SCc3ccccn3)n2C)n(C)c1=O
 : 8	-2%	.	.
O=C(COC(=O)CCN1C(=O)C2CC=CCC2C1=O)NCCc1ccccc1 (stereo unspecified)
 : .	2%	-0.4%	0%
COC(=O)N/N=C/c1cn(CC(C)COc2ccccc2)c2ccccc12 (stereo unspecified)
 : -18	?	1.4%	1%
N#Cc1ccc(C(=O)Nc2ccc(S(=O)(=O)NC3=NCCCCC3)cc2)cc1
 : 1	7%	-3.0%	-8%
COc1ccc2oc(C(=O)Nc3nc4ccccc4[nH]3)c(C)c2c1
 : -5	-55%	1.9%	28%
CC(=O)Nc1cccc2c1[n+]([O-])c(C)c(C)[n+]2[O-]
 : -7	3%	.	.
O=c1oc2ccc(NS(=O)(=O)c3cccc4cccnc34)cc2s1
 : .	-1%	0.0%	16%
COc1ccccc1C(CNC(=O)C1CC(=O)N(Cc2ccc(C)cc2)C1)N1CCCC1 (stereo unspecified)
 : .	.	2.4%	1%
c1ccc2nc3c(nc2c1)c1ccccc1n3CCN1CCOCC1
 : 2	-14%	?	-27%
CCN=C1SC(CC(=O)Nc2ccccc2OCC)C(=O)N1CC (stereo unspecified)
 : 6	-1%	-1.1%	1%
CCNc1c(NS(=O)(=O)c2ccc([N+](=O)[O-])cc2)c(=O)oc2ccccc12
 : .	1%	0.1%	-4%
COCCNC(=O)C(=O)NNC(=O)CCc1ccccc1
 : 5	1%	5.8%	7%
O=S(=O)(c1ccc(Cl)cc1)c1nc(-c2ccco2)oc1N1CCOCC1
 : 2	-3%	-1.2%	-13%
COc1cccc(N2CC(O)Cn3c2nc2c3c(=O)[nH]c(=O)n2C)c1 (stereo unspecified)
 : .	-2%	-0.2%	-7%
CCOC(=O)c1cc(C)n(-c2ccc(OC)c(OC)c2)c1C
 : 4	-10%	6.0%	15%
O=C(Nc1cccc(C(=O)O)c1)/C(=C\c1ccccc1)NC(=O)c1ccccc1
 : 3	5%	-1.9%	3%
CN(Cc1ccc(Cl)c(Cl)c1)C(=O)c1cccc(S(=O)(=O)N2CCN(Cc3ccccc3)CC2)c1
 : .	.	-2.2%	2%
Cc1ccc(C)c(NC(=O)c2oc(=O)c3ccccc3c2-c2ccccc2)c1
 : -22	17%&8%	2.9%	13%
S=c1[nH]nc(C2CCCCC2)n1/N=C/c1c(Cl)cccc1Cl
 : .	-1%	1.3%	10%
COC(=O)c1ccc(-c2ccco2)n1Cc1ccccc1Cl
 : -3	-5%	0.3%	-12%
COc1ccc(CCC(=O)NNC(=O)Nc2cc(Cl)ccc2C)cc1
 : .	-5%	-0.2%	-4%
N#Cc1nc(-c2ccc(OCc3ccccc3)cc2)oc1NCc1cccnc1
 : -1	-2%	-3.5%	1%
Cc1cc2c(ncn2C)c(NS(=O)(=O)c2ccccc2Cl)c1C
 : 9	-7%	4.1%	1%
COc1ccc(C(=O)Nc2cc(C(F)(F)F)ccc2Cl)cc1OC
 : 5	-17%	-4.6%	-4%
CC1CCCCC1NCc1cccc([N+](=O)[O-])c1 (stereo unspecified)
 : 9	-26%	-2.0%	16%
COc1ccc(CC(=O)NC2CCSc3ccccc32)c(OC)c1 (stereo unspecified)
 : .	-13%	-0.4%	9%
COc1ccc(C(=O)Nc2ccc(N3CCN(C(=O)c4ccccc4)CC3)cc2)cc1[N+](=O)[O-]
 : -3	10%	9.5%	4%
Cc1c(C(=O)NCCSCc2cccc(C(F)(F)F)c2)cnn1-c1ccc(Cl)cc1
 : -10	7%	-6.0%	-4%
COc1ccc(OCCCC(=O)N(C)CC(=O)Nc2ccccc2Cl)cc1
 : .	-2%	0.2%	-8%
CC1=CC(C)(C)NC(=S)N1NC(=O)c1ccccc1Cl
 : 1	0%	-2.2%	13%
Cc1ccc(C(=O)NCCc2nnc3ccc(SCC(=O)N4CCCCC4)nn23)cc1
 : .	-24%	2.6%	-6%
CC(C)CC(=O)Nc1ccc2ccccc2c1
 : -1&2	0%&-49%	10%	19%
CC1CCN(c2nc3ccccc3n2CC(=O)c2ccccc2)CC1
 : -10	4%	-2.1%	-7%
Cc1cc(C)n(C(C)n2nc(C)cc2C)n1
 : 2	-3%	6.7%	1%
CN=C(Nc1cc(Cl)ccc1Cl)SC1CC(=O)N(c2ccc(C(=O)OC)cc2)C1=O (stereo unspecified)
 : -8	4%	0.3%	-5%
CC1CC(C)CN(C(=O)c2ccc3c(c2)N(Cc2ccccc2)CCS3)C1 (stereo unspecified)
 : 3	6%	12%	-2%
COC1(OC)N=C(N)C2(C#N)C(c3ccccc3)NC(C)=CC12C#N (stereo unspecified)
 : 4	0%	1.3%	-30%
COc1ccc(OC)c(N/C(C)=C/C(=O)c2ccc(C)o2)c1
 : 2	-8%	?	-12%
N#CCCCC#Cc1ccc2c(c1)COc1c3ccccc3nn1-2
 : .	.	-3.6%	8%
CCCS(=O)(=O)N1CCN=C1SCc1cccc(F)c1
 : .	-8%	-1.8%	1%
COCCN(C(=O)COC(=O)C(C)(C)Oc1ccc(Cl)cc1)c1c(N)n(Cc2ccccc2)c(=O)[nH]c1=O
 : .	.	-0.2%	-2%
C=C(C)c1cccc(C(C)(C)NC(=O)NCc2ccc(OC)c(OC)c2)c1
 : -14	-1%	3.1%	-11%
COc1ccc(-c2nc(CS(=O)CC(=O)NCCCN3CC(C)CC(C)C3)c(C)o2)cc1OC (stereo unspecified)
 : -1	-4%	-3.8%	6%
Cc1ccc(N2CN=C(c3ccccc3)NC2=S)cc1
 : 6	-43%	3.1%	-4%
O=C(NCCS(=O)(=O)NCc1ccccc1)c1ccccc1
 : .	.	-1.9%	16%
CCC1C(=O)NCCN1C(=O)CCc1nnc(CCc2ccc(OC)cc2)o1 (stereo unspecified)
 : .	-9%	-0.2%	-20%
CC1CCC(NC(=O)CCS(=O)(=O)c2ccc3c(c2)NC(=O)CS3)CC1 (stereo unspecified)
 : .	4%	-0.1%	3%
C=CCn1c(COc2ccccc2-c2ccccc2)nnc1SCC(=O)NC(=O)NCc1ccco1
 : -10	0%	4.6%	-14%
Cc1ccc(N2C(S)=C(C#N)C(=O)NC2c2ccco2)cc1 (stereo unspecified)
 : 5	0%	-2.4%	-3%
COc1ccc(-c2nc3ccccc3c(=O)n2CCOc2cccc(C)c2C)cc1
 : -3	-3%	0.4%	1%
CCC(=O)N1CCc2cc(S(=O)(=O)CCC(=O)N3CCc4ccccc4C3)ccc21
 : -4	-1%	0.1%	8%
CCOC(=O)c1ccc(NC(=O)N2CC(C)OC(C)C2)cc1 (stereo unspecified)
 : 6&-11	-10%&-3%	-1.6%	-2%
C=CCC(O)(CC=C)CNC(=O)c1ccc(OC)c(OC2CCN(C(C)=O)CC2)c1
 : .	-1%	0.2%	8%
CCCC(=O)O/N=C(\c1ccccc1)c1ccncc1
 : .	-1%	5.4%	0%

Continued:
Results follow in this order: GLA inh pH 4.5	miR-21 reporter	Rango-impB inh	Rango dissoc inh
Nc1nc(N)c(N=Nc2ccc(C(=O)O)cc2)c(N)n1
 : -7	4%	-0.2%	22%
COc1ccc(S(=O)(=O)NC(CC(=O)NCc2ccc3c(c2)OCO3)c2ccco2)cc1 (stereo unspecified)
 : -3	-6%	?	2%
COc1cccc(NC(=O)COc2ccc(C(=S)N3CCN(C)CC3)cc2OC)c1
 : .	20%	-2.0%	-3%
Cn1nnnc1SCC(=O)Nc1ccccc1C(N)=O
 : 1	-1%	-3.3%	21%
CCOc1cc2[nH]c(=S)n(Cc3ccc(C(=O)NCCCOC)cc3)c(=O)c2cc1OCC
 : .	0%	1.1%	15%
Cc1c(C)c(C)c(C(=O)CCc2cccc(NC(=O)CCC(=O)O)c2)c(C)c1C
 : .	-13%	-3.9%	-7%
COC(=O)Cc1ccc(NC(=O)c2ccc3c(c2)C(=O)N(Cc2cccnc2)C3=O)cc1
 : .	-5%	-3.2%	-1%
CC(C)CCC1(C)NC(=O)N(CC(=O)Nc2ccc3c(c2)OCCO3)C1=O (stereo unspecified)
 : .	.	1.6%	3%
CCOc1cccc(/C=C/c2ccc3ccccc3n2)c1OC(C)=O
 : -1	14%	1.5%	-15%
CCc1c(O)nc(SCC(=O)Nc2ccccc2OC)[nH]c1=O
 : -9	-2%	0.0%	-20%
Cc1ccccc1OCc1nc2ccccc2c(=O)n1/N=C/c1c[nH]c2ccccc12
 : 0	-14%	?	-9%
C/C(=N\NC(=O)c1ccc([N+](=O)[O-])cc1)c1cccc([N+](=O)[O-])c1
 : -21	1%	0.5%	0%
Cc1cccc(C)c1NC(=O)CN(C)c1ccc(C(F)(F)F)cn1
 : 1	-4%	-1.2%	-7%
O=C(NN1C(=O)/C(=C/c2cccs2)SC1=S)c1cccnc1
 : 1	-3%	1.0%	26%
N#Cc1ccccc1CSc1nnc(-c2ccncc2)o1
 : .	-47%	?	37%
CC(C)CN(C(=O)C1CCCO1)c1c(N)n(CC(C)C)c(=O)[nH]c1=O (stereo unspecified)
 : .	.	-0.5%	0%
Cc1cc(Cl)ccc1NC(=O)COC(=O)CCNS(=O)(=O)c1ccccc1
 : .	.	1.9%	0%
CCN(CC)S(=O)(=O)c1cccc(NC(=O)c2ccccc2Br)c1
 : -4	0%	-3.2%	16%
COc1ccc(-c2csc(NC(=O)CSCc3c(C)noc3C)n2)c(OC)c1
 : .	.	3.2%	3%
CCN1CCc2c(sc(NC(=O)c3ccc(S(=O)(=O)N4CCOCC4)cc3)c2C(=O)OC)C1
 : -24	-8%	6.6%	23%
CCCc1nn2c(=O)cc(COc3ccc(NC(=O)c4ccco4)cc3)nc2s1
 : .	-1%	-2.2%	2%
Cn1c(=O)c2c(nc(CN3CCN(C(=O)c4ccco4)CC3)n2Cc2ccc(F)cc2)n(C)c1=O
 : 0	-12%	-1.0%	0%

An excerpt from above in order of SMILES length, largest number first.
Results follow in this order: GLA inh pH 4.5	miR-21 reporter	Rango-impB inh	Rango dissoc inh
COc1ccc(S(=O)(=O)NC(CC(=O)NCc2ccc3c(c2)OCO3)c2ccco2)cc1 (stereo unspecified)
 : -3	-6%	?	2%
Cc1ccccc1OCc1nc2ccccc2c(=O)n1/N=C/c1c[nH]c2ccccc12
 : 0	-14%	?	-9%
Cc1cc(Cl)ccc1NC(=O)COC(=O)CCNS(=O)(=O)c1ccccc1
 : .	.	1.9%	0%
O=C(NN1C(=O)/C(=C/c2cccs2)SC1=S)c1cccnc1
 : 1	-3%	1.0%	26%
N#Cc1ccccc1CSc1nnc(-c2ccncc2)o1
 : .	-47%	?	37%

3 compounds from above, arranged by the value under miR-21 reporter, smallest number first:
| Compound | GLA inh pH 4.5 | miR-21 reporter | Rango-impB inh | Rango dissoc inh |
| --- | --- | --- | --- | --- |
| COc1ccc(CC(=O)NC2CCSc3ccccc32)c(OC)c1 (stereo unspecified) | . | -13% | -0.4% | 9% |
| O=S(=O)(c1ccc(Cl)cc1)c1nc(-c2ccco2)oc1N1CCOCC1 | 2 | -3% | -1.2% | -13% |
| CC(CC(=O)N1CCN(c2ccc(C(F)(F)F)cn2)CC1)n1ccnc1 (stereo unspecified) | 1 | -1% | 1.1% | 1% |

High-throughput results as filed in PubChem.

A portion of the library. The share of hits here may be higher or lower than overall.
